From PubChem BioAssay
TRPML1 inh = blocks the human TRPML1 channel; TRPML1-inducible cells, Ca2+ dye fluorescence, FDSS; hits give low values; inhibition of EC80 agonist-evoked calcium signal; activity change, negative = inhibition, % (concentration not given with the values); 0.02% of 390,000 active; in the data active means activity change below about -50%; inconclusive means about -30% to -50%; inactive means above about -30%;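 also: stimulus is agonist 54-4 at its EC80 concentration; % is scaled to controls: 0 for no effect and ±100 for the full control effect; compound concentration not given in the record; the text of the record puts the active cut at -80%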
Target sequence (Q9GZU1 whole entry, looked up): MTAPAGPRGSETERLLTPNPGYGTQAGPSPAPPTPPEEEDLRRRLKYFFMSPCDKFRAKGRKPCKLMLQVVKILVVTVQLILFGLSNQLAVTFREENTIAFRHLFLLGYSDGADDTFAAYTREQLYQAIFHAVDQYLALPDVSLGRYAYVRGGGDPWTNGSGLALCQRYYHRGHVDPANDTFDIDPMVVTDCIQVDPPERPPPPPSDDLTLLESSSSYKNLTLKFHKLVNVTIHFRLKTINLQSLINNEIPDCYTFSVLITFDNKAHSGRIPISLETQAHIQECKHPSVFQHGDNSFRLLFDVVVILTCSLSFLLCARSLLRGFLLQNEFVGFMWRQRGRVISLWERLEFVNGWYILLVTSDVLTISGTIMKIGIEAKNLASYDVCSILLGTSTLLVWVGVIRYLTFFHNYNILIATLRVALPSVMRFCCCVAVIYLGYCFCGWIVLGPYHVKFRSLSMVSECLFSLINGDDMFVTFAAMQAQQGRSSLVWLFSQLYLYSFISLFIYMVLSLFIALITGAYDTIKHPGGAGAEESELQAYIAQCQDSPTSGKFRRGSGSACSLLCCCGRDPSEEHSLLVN
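Calcium fluorescence in TRPML1-DL cells induced overnight with Tet: a 110 s read after compound pin addition, then a 110 s antagonist read after challenge with 54-4 at 4 uM final (EC80).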
TRPML1 agonist = activates the human TRPML1 channel | 0.12% of 410,000 active | AID 624414 | activation, % (concentration not given with the values) | TRPML1-expressing cells, Ca2+ dye fluorescence, FDSS; host cell line not named in the record; reference of the full effect not given here; in the data active = activation above about 50%; inconclusive = about 30% to 50%; inactive = below about 30%; also: 0% is about no effect; the text of the record puts the active cut at 80%
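In this qHTS format, compounds were pin-transferred onto Ca8-dye-loaded TRPML1-DL cells induced with Tet overnight, and intracellular Ca2+ fluorescence was recorded kinetically for 110 s after a 10 s baseline. A subsequent 4uM final 54-4 (EC80) addition followed by a second 110 s read served as the antagonist phase.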
Menin-MLL FL inh = inhibitors of human menin-MLL interaction, wild-type MLL peptide | AID 1766 | FP activity change, % at 61.4 µM | 290,000 tested, under 10 active | Fluorescence polarization, fluorescein-MLL peptide displacement from menin; inconclusive = falling polarisation curve, or a change in total fluorescence; inactive = total fluorescence flat and polarisation flat or rising; no compound was filed as active; the % refers to the polarisation; negative = inhibition;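 also: % of control where 0% means no effect; inhibitors lower the polarisation; unlabelled MLL peptide was the positive control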
ClpP mod = qHTS Assay for Activators of ClpP; purified B. subtilis ClpP, FRET peptide cleavage, 20 min; 1.9% of 340,000 active; ATP-dependent Clp protease proteolytic subunit (Bacillus subtilis (strain 168)), P80244; Potency, µM (series often up to 57.5 µM), for inactives: at the highest dose activity change, negative = active; active = well fitted falling curve with a large enough effect; inconclusive = small, poorly fitted or top-dose-only effect; inactive = no such curve, though single readings can be large or run the other way; also: potency is read from the fitted curve at half-maximal effect; the source files actives as falling curves though it sought activators and does not explain the sign; nearly all actives have a fitted effect of over 65% in size; many hits overshoot -100%
Target sequence (P80244 whole entry, looked up): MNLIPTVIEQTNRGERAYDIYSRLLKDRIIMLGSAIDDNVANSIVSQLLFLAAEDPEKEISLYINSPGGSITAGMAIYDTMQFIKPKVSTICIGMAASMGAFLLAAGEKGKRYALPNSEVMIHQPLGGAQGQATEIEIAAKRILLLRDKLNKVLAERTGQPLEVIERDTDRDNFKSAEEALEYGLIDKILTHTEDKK
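ClpP 10 microg/mL final, pH 8 Tris/KCl buffer with BSA, glycerol, Tween-20; compound pinned in; FRET-FV substrate; RT 20 min; Ex320/Em430; ΔFRET vs ADEP 5.8 microM, DMSO, no enzyme.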
gsp ag = agonists of gsp mutant (McCune-Albright syndrome); Potency, µM (doses to about 76.9 µM), for the others: at the highest dose activation (cAMP increase), most hits filed as activators; gsp mutant cells, cAMP HTRF, 30 min; control for the full effect not named in the record; AID 624287; 0.13% of 340,000 active; active = well fitted activation curve with a large enough effect; inconclusive = small, poorly fitted or top-dose-only effect, or another doubt; inactive = no such curve, though single readings can be large or run the other way; cell line not stated here;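 also: phosphodiesterase inhibitor Ro 20-1724 added with compounds to block cAMP breakdown; potency is read from the fitted curve at half-maximal effect; nearly all actives have a fitted effect of over 60% in size; about a fifth of the inactives were tested at one dose only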
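Cells in DMEM/10% FBS with G418 were pretreated with compounds in DMSO plus […] (300 uM stock) for 30 min at 37C. cAMP was measured by HTRF (cAMP-d2 plus anti-cAMP antibody-K) after 30 min at room temperature.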
gsp antagonist = antagonists of gsp mutant (McCune-Albright syndrome); gsp-mutant cells, cAMP HTRF, 30 min; control for the full effect not named in the record; Potency, µM (series often up to 76.9 µM), for inactives: top-dose activity change, negative = inhibition, most hits filed as inhibitors; 0.4% of 340,000 active; active = falling curve of any shape with a large fitted effect; inconclusive = falling curve, mostly with a smaller effect; inactive = flat or rising curve; cell line not stated here;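 also: intracellular cAMP measured with PDE inhibitor Ro 20-1724 present during compound exposure; potency is read from the fitted curve at half-maximal effect; % is scaled to controls: 0 for no effect and ±100 for the full control effect; nearly all actives have a fitted effect of over 65% in size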
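G418-selected cells were plated in DMEM/10% FBS for 16-24 h at 37C, then treated with compounds plus the PDE inhibitor […] (300 uM solution added) for 30 min at 37C. Intracellular cAMP was measured by HTRF after 30 min lysis at room temperature.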
An asterisk follows results filed as active; ? = inconclusive; / = no result given; & = joins results of further samples; [ ] = another dose, or the depositor's remark.

SMILES	TRPML1 inh	TRPML1 agonist	Menin-MLL FL inh	ClpP mod	gsp ag	gsp antagonist
COc1ccc(CNC(=O)COC(=O)CN2C(=O)COc3ccccc32)cc1	4	-0.4	/	3.9%	-21%[15.4 µM]	2%
COc1ccc(NC(=O)C2CCN(C(=O)c3ccc(OC)cc3)CC2)cc1	-14	-0.8	6.9	0.0%	-19%	-13%
CC1(C)CC2CC(C)(CN2C(=O)COC(=O)c2cc(Cl)cc(Cl)c2N)C1 (configuration not stated)	38	4.1	-0.8	32µM*	-21%	-1%
COc1ccc(N2C(=O)C(F)(F)C2c2ccc(C)cc2)cc1OC (configuration not stated)	2	-0.1	0.0	/	-40%	1%
O=C1CC(=O)C(n2cncn2)C(c2ccc(Cl)cc2Cl)C1 (configuration not stated)	2	-0.6	0.4	1.2%	-27%	0%
CC(Oc1cccc(Cl)c1)C(=O)NNC(=O)c1cccnc1 (configuration not stated)	11	0.5	/	-0.7%	-22%	15%
CCCc1cc(=O)[nH]c(SCC(=O)c2cc(C)n(C(C)COC)c2C)n1 (configuration not stated)	3	1.0	2.1	-2.2%	-1%	-12%
Cc1ccc(NC(=O)c2sc3nc(C)nc(N4CCN(c5ccccn5)CC4)c3c2C)c(C)c1	-19	?	0.6	/	10%[15.4 µM]	?
COC(=O)c1c(C)[nH]c(C(=O)C(C)OC(=O)C2=NNC(=O)CC2)c1C (configuration not stated)	13	0.8	-3.5	/	-4%[15.4 µM]	9%
CC1(c2nnc(-c3ccc(Cl)cc3)o2)CC(c2ccncc2)=NO1 (configuration not stated)	-26	1.2	-0.6	0.3%	/	-1%
CCn1c(SCc2nc3ccccc3c(=O)[nH]2)nnc1-c1cccnc1	45	0.4	2.4	-1.9%	3%	12%
COc1cccc(CNC(=O)Cn2ccc3cc(S(=O)(=O)N4CCCC4)ccc32)c1	5&-4	0.6&-0.5	-0.4	-3.2%	25%	-20%
Cc1cc(C)n(-c2cccc(CN(C)Cc3nc(-c4cnccn4)no3)c2)n1	26	0.1	-12	0.0%	-38%[inhibitor]	6%
CNC(=O)CSc1nnc(-c2ccco2)n1-c1ccccc1OC	1	1.0	-1.8	-0.3%	-15%	-7%
Oc1cccc(C(=S)N2CCN(Cc3ccccc3)CC2)c1	6	-0.3	-2.3	-2.3%	0%	8%
CCCN1C(=O)/C(=C/c2cc(C)n(C)c2C)SC1=Nc1ccc(OC)cc1	11	1.4	11	-0.5%	9%	-2%
Cc1ccccc1Nc1nc(N)nc(CCl)n1	-10	-0.7	0.5	-1.0%	5%[15.4 µM]	-12%
Cc1cc(C)cc(NC(=S)N=Nc2c(O)n(C)c3ccc(S(=O)(=O)N4CCOCC4)cc23)c1	-21	-0.5	4.3	-9.0%	3%	-5%
CN(c1ccc(C(=O)NCc2ccccn2)cc1)S(=O)(=O)c1ccc(Cl)cc1	6	-0.1	/	0.3%	3%[15.4 µM]	-3%
CSc1ccc(C2C(C(=O)Nc3ccccc3)=C(C)Nc3nc4ccccc4n32)cc1 (configuration not stated)	12	1.1	/	-17%	/	/
COC(=O)c1ccc(OC(=O)c2ccccn2)cc1	10	1.1	-2.4	0.1%	6%	2%
CCN1CCN(C(CNS(=O)(=O)c2ccc(Cl)cc2)c2ccccc2)CC1 (configuration not stated)	-4	0.3	-2.9	-2.4%	29%	15%
Cc1ccc(S(=O)(=O)N2CCCN(S(=O)(=O)c3ccc(C)c(C)c3)CC2)cc1C	-6	-0.1	2.4	0.8%	-6%	7%
Cc1ccc(S(=O)(=O)N2CCC(C(=O)NNC(=O)c3ccccc3O)CC2)cc1C	-7	-0.5	/	?	-3%	-8%
Cc1[nH]n(C2=NCCS2)c(=O)c1N=Nc1ccccc1	12	2.5	-2.6	/	26%[15.4 µM]	14%
NC(=O)c1c(NC(=O)c2c(F)cccc2F)sc2c1CCN(Cc1ccccc1)C2	27	21	26	0.2%	-28%	-16%
Cc1csc(N(C)C(=O)CSc2nnc(COc3ccccc3C)o2)n1	1	1.0	13	0.1%	-3%	-16%
Cc1ccc2nc(C(O)C(O)c3nc4ccc(C)cc4[nH]3)[nH]c2c1 (configuration not stated)	26	0.2	2.7	?	21%	18%
COc1ccc(NS(=O)(=O)c2cccc(NC(=O)c3ccc(S(=O)(=O)N4CCCCCC4)cc3)c2)cc1	0	0.6	5.2	-6.2%	-1%	-21%
COc1cc(CN2CCN(Cc3ccc(C)cc3)CC2)c([N+](=O)[O-])cc1OC	56	-0.7	-6.9	/	0%	0%

A second format for part of the listing above.
Cc1ccc2nc(C(O)C(O)c3nc4ccc(C)cc4[nH]3)[nH]c2c1 (configuration not stated)
  TRPML1 inh = 26
  TRPML1 agonist = 0.2
  Menin-MLL FL inh = 2.7
  ClpP mod = ?
  gsp ag = 21%
  gsp antagonist = 18%

COc1ccc(NS(=O)(=O)c2cccc(NC(=O)c3ccc(S(=O)(=O)N4CCCCCC4)cc3)c2)cc1
  TRPML1 inh = 0
  TRPML1 agonist = 0.6
  Menin-MLL FL inh = 5.2
  ClpP mod = -6.2%
  gsp ag = -1%
  gsp antagonist = -21%

COc1cc(CN2CCN(Cc3ccc(C)cc3)CC2)c([N+](=O)[O-])cc1OC
  TRPML1 inh = 56
  TRPML1 agonist = -0.7
  Menin-MLL FL inh = -6.9
  ClpP mod = /
  gsp ag = 0%
  gsp antagonist = 0%

(list continues)
SMILES	TRPML1 inh	TRPML1 agonist	Menin-MLL FL inh	ClpP mod	gsp ag	gsp antagonist
COc1ccc(-n2c(=S)[nH]c3cc(C(=O)NC4CCCCC4)ccc3c2=O)c(OC)c1	8	-0.3	0.5	1.3%	0%[15.4 µM]	-23%
CCN1C(=O)c2ccccc2S(=O)c2ccc(C(=O)NCc3ccc(F)cc3)cc21 (configuration not stated)	-7	0.7	/	-3.4%	/	/
COc1ccccc1CN(C)CC(=O)Nc1cccc2ccccc12	32	2.1	1.0	/	3%[15.4 µM]	-6%
Cc1c(C(=O)OC2CCC(C)CC2)[nH]c2c1C(=O)CC(c1ccc(N(C)C)cc1)C2 (configuration not stated)	23	1.0	/	-0.7%	/	/
Cc1cc(C)c(C(=O)C[n+]2cccc(C(N)=O)c2)c(C)c1	6	-0.5	5.4	-0.9%	-1%[15.4 µM]	7%
O=C(Nc1ccccc1Cl)C(=O)c1cn(CC(=O)N2CCOCC2)c2ccccc12	19	0.8	/	-2.1%	-26%	?
Cc1c(C(=O)Nc2cccc(Cl)c2)oc2ccc(S(=O)(=O)N3CCCCCC3)cc12	2	-0.3	/	-22%	/	/
Cc1cc(C)n(CC(=O)Nc2ccc3c(c2)OCO3)c(=O)c1C#N	15	1.8	/	0.7%	2%[15.4 µM]	-13%
O=C(OC(C(=O)Nc1cc(Cl)cc(Cl)c1)c1ccccc1)C1=COCCO1 (configuration not stated)	-12	1.9	4.5	0.8%	-22%	-13%
O=C(COC(=O)C1CC2C=CC1C2)Nc1cccc(S(=O)(=O)N2CCOCC2)c1 (configuration not stated)	9	-0.6	-0.6	/	-11%[15.4 µM]	-4%
Fc1cccc(Cc2noc(CN3CCCCC3CCc3ccccn3)n2)c1 (configuration not stated)	-8	-0.4	-4.4	/	34%	-2%
Cc1ccc(Cl)cc1NC(=O)CN1C(=O)CCc2ccccc21	12	-0.6	/	-9.7%	/	/
Cc1ccc(NC(=O)c2ccco2)c(NC(=O)c2ccccc2)c1	-19	1.5	/	/	6%	4%
CCOC(=O)C1C(=O)C=C(c2cccs2)CC1c1ccccc1C (configuration not stated)	-5	1.2	4.5	-3.0%	?	-5%
C[C@@H](NC(=O)[C@@H]1Cc2ccccc2CN1C(=O)OC(C)(C)C)C(=O)NCc1ccco1	2	-1.0	/	-1.5%	-4%	5%
COc1ccc(S(=O)(=O)N(C)CC(=O)NCC2CCCO2)cc1OC (configuration not stated)	-19	-0.5	2.3	/	-18%[15.4 µM]	14%
Cc1ccc(C(=O)N/N=C\c2ccccc2[N+](=O)[O-])cn1	1	4.3	0.9	0.8%	-58%[inhibitor]	6%
Cc1ccc(C)c(N2CCN(C(=O)CCn3c(=O)c4cccn4c4cccnc43)CC2)c1	-6	2.2	/	-25%	/	/
CC(C)(C)OC(=O)NCc1ccc(NC(=O)c2nc[nH]c2C(=O)NCCCNC(=O)c2[nH]cnc2C(=O)Nc2ccc(CNC(=O)OC(C)(C)C)cc2)cc1	-1	-0.5	/	-6.3%	/	-4%
CCOC(=O)N1N=C(c2ccc(OC)cc2)CC1(O)C(F)(F)F (configuration not stated)	-10	0.8	2.1	-0.4%	-2%	48%[activator]
COc1cc(NC(=O)c2cc(-n3cnnc3)ccc2Cl)cc(OC)c1	-8	-0.9	-1.9	1.2%	-2%	-15%
Cc1cc(Nc2nc3ccccc3[nH]c2=O)n(-c2ccccc2)n1	-7	-0.7	3.0	0.1%	-34%[inhibitor]	8%
CN(C)Cc1c(O)ccc2occ(C(=O)c3ccccc3)c12	13	-0.6	0.1	-0.4%	-14%	14%
CCOc1ccc(NC(=O)CN(C)C(=O)c2ccc3nc(CC)c(CC)nc3c2)cc1OCC	6	-0.9	/	1.2%	11%	1%
COC(=O)COc1ccc(S(=O)(=O)N2CCCCCC2)cc1	-22	0.4	-1.8	/	12%[15.4 µM]	-7%
COc1cc(NS(=O)(=O)c2c(C)nc3sc(C)c(C)n3c2=O)cc(OC)c1	35	-0.7	/	-4.8%	/	/
CCCC1=C(C(=O)OCC)C(c2ccncc2)n2ncnc2N1 (configuration not stated)	-3	0.5	-0.8	-3.3%	11%	9%
O=C(c1ccc(F)cc1F)N1CCC(N2CCC(C(=O)N3CCOCC3)CC2)CC1	-3	-0.3	?	-3.2%	?	21%
CCOC(=O)c1c(NC(=O)CSc2nnc(C)c(=O)[nH]2)sc2c1CCC2	-6	-0.5	-0.6	-6.8%	-23%	-1%
Cc1ccccc1-c1noc(CSc2nc3ccccc3[nH]2)n1	-2	-0.4	/	-0.2%	/	/
S=C1NCCNC(=S)NCCOCCOCCN1	5	0.1	-1.4	/	9%[15.4 µM]	9%
CCN(CC(=O)Nc1ccc(Cl)c(C(F)(F)F)c1)CC(=O)NC1CCS(=O)(=O)C1 (configuration not stated)	2	-0.1	1.8	1.3%	5%[15.4 µM]	10%
CC(C)(C)C1CCc2c(sc(NC(=O)c3cc4ccccc4c(=O)o3)c2C(N)=O)C1 (configuration not stated)	12	0.6	/	1.4%	/	/
Cc1ccc(N(CC(=O)NC(C)C)C(=O)CCC(=O)Nc2nccs2)cc1	-11	-0.2	-0.1	-2.4%	5%	15%
CCn1nc(C)cc1C(=O)N1CCc2c([nH]c3ccccc23)C1c1cc(F)ccc1F (configuration not stated)	-13	1.2	2.3	/	19%[15.4 µM]	13%
Cc1ccc(S(=O)(=O)N2CCOCC2)cc1NC(=O)CNCc1ccccc1Cl	5	1.0	/	/	-1%[15.4 µM]	-16%
